D2 ag – agonists of human D2 dopamine receptor (beta-arrestin); DiscoveRx PathHunter D2 beta-arrestin, luminescence, 90 min; 100% = 57 uM dopamine signal; P14416; AID 624465; activation, % (test concentration not listed); 0.084% of 360,000 active; in the data active = activation above about 40%; inconclusive = about 15% to 40%; inactive = below about 15%; note: compound concentration not given in the record; the text of the record calls up to 30% inactive
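DiscoveRx PathHunter D2 beta-arrestin cells (2,100/well) attached overnight, then compound-stimulated 90 min at 37 C in HBSS/10 mM HEPES/0.1% Tween-20 buffer; beta-galactosidase complementation read by luminescence after 1 h at ambient temperature. Dopamine 57 uM final (EC100) as control.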
PINK1 modulator – modulators of PINK1 expression; Potency, µM (titrated, usually from 76.6 µM), for inactives: at the top dose activation (PINK1 increase), most hits filed as activators; PINK1 immunofluorescence, high-content cytometry, 24 h; 0.2% of 410,000 active; active = well fitted activation curve with a large enough effect; inconclusive = small, poorly fitted or top-dose-only effect; inactive = flat fitted curve, though single readings scatter; cell line not stated here;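 note: potency is the fitted concentration of half-maximal effect; % of control where 0% means no effect; nearly all actives have a fitted effect of over 65% in size; a mitochondrial uncoupler was the plate control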
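A stable cell line was treated with compounds at 5 concentrations for 24 hours, with CCCP as control. PINK1 levels and mitochondrial localization were measured by immunofluorescence with mitochondrial, cell and nuclear markers after fixation, read by laser-scanning cytometry.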
Six1-Eya2 inh – Six1/Eya2 interaction inhibition; Q15475+O00167; AlphaScreen GST-Six1/His-Eya2 binding, biochemical; stronger effect = lower value; control for the full effect not named in the record; activity change, % (concentration not given with the values); 0.56% of 360,000 active; AID 651725; in the data active = activity change below about -65%; inconclusive = about -30% to -65%; inactive = above about -30%; note: % is set by controls: 0 for no effect and ±100 for the full control effect
Target sequence (O00167 whole entry, looked up): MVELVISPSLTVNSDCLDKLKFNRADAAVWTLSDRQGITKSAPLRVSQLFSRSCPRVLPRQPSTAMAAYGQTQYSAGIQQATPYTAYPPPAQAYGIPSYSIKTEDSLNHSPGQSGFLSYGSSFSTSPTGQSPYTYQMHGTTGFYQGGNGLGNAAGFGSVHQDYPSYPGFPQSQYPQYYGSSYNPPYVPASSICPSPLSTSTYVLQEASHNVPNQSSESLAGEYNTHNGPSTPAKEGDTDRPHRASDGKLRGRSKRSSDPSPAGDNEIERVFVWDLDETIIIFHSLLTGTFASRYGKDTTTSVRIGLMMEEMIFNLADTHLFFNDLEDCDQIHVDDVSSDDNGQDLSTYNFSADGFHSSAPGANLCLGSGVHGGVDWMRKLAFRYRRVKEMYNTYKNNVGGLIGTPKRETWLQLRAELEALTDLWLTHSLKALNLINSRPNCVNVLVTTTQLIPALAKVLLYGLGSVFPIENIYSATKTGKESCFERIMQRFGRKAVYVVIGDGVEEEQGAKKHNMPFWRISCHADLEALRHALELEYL
Target sequence (Q15475 whole entry, looked up): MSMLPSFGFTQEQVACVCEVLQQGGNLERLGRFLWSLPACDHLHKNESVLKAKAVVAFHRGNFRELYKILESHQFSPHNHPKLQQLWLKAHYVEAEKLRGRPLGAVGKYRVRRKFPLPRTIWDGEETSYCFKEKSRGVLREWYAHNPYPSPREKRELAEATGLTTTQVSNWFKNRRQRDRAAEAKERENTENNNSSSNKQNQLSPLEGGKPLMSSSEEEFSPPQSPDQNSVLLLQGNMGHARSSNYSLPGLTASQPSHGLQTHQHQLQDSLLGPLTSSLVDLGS
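Compounds are tested against tagged Six1 and Eya2 proteins bridged by glutathione donor and nickel acceptor beads; after a one-hour incubation at 37 °C without light, AlphaScreen emission is recorded.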
TRPML1 agonist – human mucolipin-1 channel agonism. Q9GZU1. TRPML1-expressing cells, Ca2+ dye fluorescence, FDSS; host cell line not named in the record; reference of the full effect not given here. activation, % (test concentration not listed). 0.12% of 410,000 active. AID 624414; in the data active = activation above about 50%; inconclusive = about 30% to 50%; inactive = below about 30%; note: 0% is about no effect; the text of the record puts the active cut at 80%
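Agonist activity was taken from a 110 s kinetic Ca2+ dye read on the FDSS after pinning compounds onto TRPML1-DL cells. The cells were seeded at 1,500/well with Tet inducer, incubated about 16 h, then dye-loaded at room temperature.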
TRPML1 blocker – blocks the human TRPML1 channel; activity change, negative = inhibition, % (no concentration beside the values); TRPML1-inducible cells, Ca2+ dye fluorescence, FDSS; stronger effect = lower value; inhibition of EC80 agonist-evoked calcium signal; Q9GZU1; 0.02% of 390,000 active; in the data active means activity change below about -50%; inconclusive means about -30% to -50%; inactive means above about -30%;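 note: stimulus is agonist 54-4 at its EC80 concentration; % is set by controls: 0 for no effect and ±100 for the full control effect; compound concentration not given in the record; the text of the record puts the active cut at -80%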
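Calcium fluorescence in TRPML1-DL cells induced overnight with Tet: a 110 s read after compound pin addition, then a 110 s antagonist read after challenge with 54-4 at 4 uM final (EC80).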
D2 potentiator – potentiates the human D2 dopamine receptor allosterically | DiscoveRx D2 beta-arrestin cells, luminescence, 90 min; 100% = 57 uM dopamine signal | P14416 | 0.23% of 360,000 active | potentiation, % (test concentration not listed); active = potentiation of 50% or more; inconclusive = 30% to 50%; inactive = 30% or less;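 note: compound concentration not given in the record; tested on top of an EC20 dose of dopamine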
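D2 cells co-treated with compound plus 50 nM dopamine (EC20) for 90 min at 37 deg C to detect potentiation. Beta-arrestin recruitment was read as enzyme-fragment luminescence after 1 h at ambient temperature. Full response was set by 57 uM dopamine.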
* hit, by the source's call; ? = inconclusive; / = no result given; [ ] = another dose, or the depositor's remark.

Order of values – D2 ag, PINK1 modulator, Six1-Eya2 inh, TRPML1 agonist, TRPML1 blocker, D2 potentiator
[1] CC(Sc1nnc(COc2ccc3ccccc3c2)n1C)C(=O)O (configuration not stated)
→ -2.5, -0.1%, 0, 1.0, 29, -12
[2] Nc1ncc(S(=O)(=O)NCc2ccccc2)cn1
→ /, 1.2%, /, 0.2, 7, /
[3] O=C(O)c1ccc2c(c1)ncn2-c1ccc(F)c(F)c1
→ /, 0.4%, /, -0.3, 10, /
[4] CCCc1nnc(NC(=O)CCC(=O)N2CCC(C)CC2)s1
→ 0.8, -1.1%, 4, -0.2, -17, -2
[5] COc1ccc(C)cc1NC(=O)NC1CCCc2ccccc21 (configuration not stated)
→ -5.4, 4.5%, -8, 4.2, 11, -15
[6] COc1ccc(N2C(=O)CC(Nc3ccc(C)cc3)C2=O)cc1 (configuration not stated)
→ -2.0, 1.3%, -1, -1.0, 2, -7
[7] C#CCOCCOCCOCCNc1nc(N2CCN(C(=O)[C@H](CCCN=C(N)N)n3cc(C(N)[C@@H](C)CC)nn3)CC2)nc(N2CCN(C(=O)[C@H](CO)n3cc([C@@H](N)C(C)C)nn3)CC2)n1 (some centres not stated)
→ -3.1, -0.2%, -11, -0.2, 3, /
[8] COc1ccc(NS(=O)CCCc2ccccc2)cc1 (configuration not stated)
→ -0.2, 0.5%, -4, -0.8, /, 0
[9] CC1(C)Cc2c(sc3ncn4nc(-c5ccco5)nc4c23)CO1
→ -4.0, -1.0%, -2, 3.2, 3, 2
[10] O=C(/C=C/c1ccccc1)NCCN1CCOCC1
→ -3.3, 3.9%, 8, 0.5, -14, -30
[11] O=C(c1ccccc1NS(=O)(=O)c1cccc2cccnc12)N1CCOCC1
→ -1.7, 0.6%, 6, -0.8, 16, -2
[12] c1ccc2c(-c3cc(C4CCNCC4)[nH]n3)cccc2c1
→ -1.9, -2.9%, -5, -0.2, 12, -12
[13] CCCC(C)NCC(=O)Nc1ccccc1-c1ccccc1 (configuration not stated)
→ -3.3, /, 8, 0.1, -15, 5
[14] COC(=O)[C@@]1(C(C)C)N=C(c2cc(OC)c(OC)c(OC)c2)[C@]2(O1)C(=O)N(C)c1ccc(Br)cc12
→ /, -0.2%, 2, 1.1, /, /
[15] Cc1ccc(S(=O)(=O)N(Cc2ccccc2F)C(=O)N2CCN(C)CC2)cc1
→ 4.5, 0.2%, 6, 0.6, 19, 0
[16] Cc1nn(-c2ccccn2)c2nc(-c3cccs3)cc(C(=O)NCc3ccco3)c12
→ 0.3, -1.3%, -8, 1.3, 10, 3
[17] Cc1cc(/C=N/NC(N)=S)c(C)n1-c1cccc(Cl)c1
→ -1.7, 1.8%, -13, 0.8, -7, -9
[18] Cc1cc(C)c2c(n1)nn1c(N3CCN(c4ccccc4C)CC3)cc(C)nc21
→ -1.9, 4.4%, 9, -1.0, -2, 3
[19] COc1ccc(NC(=O)Nc2ccc3c(c2)CCC3)cc1OC
→ 0.4, 1.9%, 3, 0.5, 11, -2
[20] CC1CCCCC12NC(=O)N(CC(=O)NCCc1ccc(S(N)(=O)=O)cc1)C2=O (configuration not stated)
→ 0.1, 0.0%, 5, 0.4, -6, -2
[21] CCN(CC)c1cc2c(cc1F)c(=O)c(S(=O)(=O)c1cccc(C)c1)cn2C
→ /, 13%, /, 0.2, -10, /
[22] C=CCn1c(SCc2ccc(C(=O)OC)cc2)nnc1-c1sc(N)nc1C
→ 3.4, 0.8%, 4, -0.9, 7, -10
[23] CCCCN(Cc1nc2ccccc2c(=O)[nH]1)C(=O)c1nn(C)c(=O)c2ccccc12
→ -1.7, -0.7%, 6, -0.2, 25, 3
[24] Cc1cc(NC(=O)CSc2nc(CCC3CCCC3)nc3ccccc23)no1
→ -2.9, 5.4%, -1, 2.5, 3, -1
[25] Cc1ccc(S(=O)(=O)N(C)C)cc1NC(=O)C1Cc2ccccc2CN1C(=O)c1ccco1 (configuration not stated)
→ -5.6, 1.2%, -13, 2.6, 17, -14
[26] O=C(COC(=O)COc1ccc(Br)cc1)NCC1CCCO1 (configuration not stated)
→ -2.0, 1.6%, -4, -0.2, 5, 2
[27] CN1CCN(c2oc(COc3ccc(-c4ccccc4)cc3)nc2C#N)CC1
→ 0.2, /, ?, 1.9, 26, -31
[28] CCCCNC(=O)c1onc(CSc2ccc(C(C)C)cc2)c1C(=O)O
→ -2.9, -0.6%, 1, -0.3, 5, -10
[29] CC1CCC2(CC1)NC(=O)N(CC(=O)N(Cc1ccccc1)C(C)(C)C)C2=O (configuration not stated)
→ -3.2, 13%, -5, -0.1, -1, -11
[30] CCNC(=O)COc1ccc(S(=O)(=O)Nc2ccccc2)cc1
→ 1.5, -0.8%[38.3 µM], 2, -0.4, 33, 2
[31] Cn1c(N)nc2nc[nH]c2c1=S
→ -3.3, 1.7%, -7, -0.5, 12, -2
[32] COc1ccc(N2CCN(C(=O)c3cc4c(=O)n(Cc5ccco5)ccc4nc3C)CC2)cc1
→ /, -0.4%, /, 1.5, -22, /
[33] CN(C)c1ccc(/C=C(\NC(=O)c2ccccc2)C(=O)NCCCn2ccnc2)cc1
→ 0.3, 3.6%, ?, 0.4, 7, -5
[34] COc1cccc(OC)c1OCCOCCN1CCN(C)CC1
→ 0.1, 0.4%, 4, 0.1, -2, -23
[35] O=C(c1cc2sccc2n1Cc1ccc(F)cc1)N1CCc2ccccc21
→ -3.9, 0.0%, -10, 0.5, 75, -8
[36] Cc1ccccc1-n1ncc2c1CC(C)(C)CC2NC(=O)CCN1Cc2ccccc2C1=O (configuration not stated)
→ -1.0, 0.8%, -2, 0.7, -16, -4
[37] CCOC(=O)c1ccc(Nc2ncnc3ccc(C)cc23)cc1
→ 0.2, 5.3%, -2, 0.2, 3, -4
[38] Cc1cc(C)c(NC(=O)C2CCN(c3nnc(C)c4c(C)n(-c5ccccc5)nc34)CC2)c(C)c1
→ /, -0.3%, /, 0.6, 0, /
[39] Cc1cc(NC(=O)COc2cccc(Oc3ccccc3)c2)no1
→ -0.3, 9.9%, -1, 1.9, 49, 19
[40] C[N+](C)(C)CCCC(=O)c1ccc2c(c1)OCO2
→ -1.3, -0.1%, 5, -0.9, -15, 9
[41] Cc1ccc(S(=O)(=O)C(CNS(=O)(=O)c2cc(F)ccc2F)c2cccs2)cc1 (configuration not stated)
→ /, 2.7%, /, 1.3, -1, /
[42] CC(=NC(C)C)C1=C(O)CCC1=O
→ -0.6, 1.0%, 0, 0.3, 18, -3
[43] CC(C)(C)c1ccc(C(=O)Nc2ccc(N3CCOCC3)cc2)cc1
→ 0.5, /, -8, 0.5, -3, -3
[44] Cc1ccc(-c2nnc(N3CCN(C(=O)Cn4c(=O)n(C)c5ccccc54)CC3)c3ccccc23)cc1
→ 3.9, 4.3%[38.3 µM], -2, 0.3, 6, 1
[45] O=C(COC(=O)c1ccccc1Br)NCc1ccccc1
→ -1.3, -3.0%, 8, 1.0, 4, -19
[46] CCNC(=O)c1cc2c(c(-c3cccc(-c4cncnc4)c3)n1)[C@@H](CCO)N(C(C)=O)C2
→ /, 0.2%, -2, -0.2, /, /
[47] COc1cccc(OC)c1OC(=O)c1cnccn1
→ -4.5, -0.5%, 3, -0.1, -20, -9
[48] CCCCN(CCCC)S(=O)(=O)c1ccc(NS(=O)(=O)c2ccc(NC(C)=O)cc2)cc1
→ 2.7, ?, -1, 2.2, 21, -3
[49] CC(=O)c1ccc(NC(=O)c2cc(S(=O)(=O)N3CCCCCC3)cn2C)cc1
→ /, 8.1%, /, -0.6, -1, /
[50] O=C(Cn1cc(C(=O)c2cccs2)c2ccccc21)NCc1cccs1
→ -0.1, -2.7%, 2, 1.5, -7, -9
[51] COc1ccccc1C(=O)Nc1nnn(C)n1
→ -4.3, -0.7%, 10, 0.8, -7, -8
[52] CCN(CC)S(=O)(=O)c1ccc(N=Nc2c(C)[nH]n(C(N)=S)c2=O)cc1
→ -9.8, -0.4%, -13, -0.3, -10, -29
[53] CNC(=O)C(=O)N1CCC2(CC1)OCCN2S(=O)(=O)c1ccc(C)cc1
→ 1.0, 0.0%, 10, -0.5, 33, 3
[54] O=C(CNCCO)N1N=C(c2cccs2)CC1c1cccs1 (configuration not stated)
→ 1.8, -1.7%, 3, 0.3, -12, -14
[55] Cc1cnc(NC(=O)CSc2nnc(-c3ccncc3)n2C2CCCCC2)s1
→ -1.3, -1.8%[38.3 µM], 0, -0.5, -1, -5
[56] COc1ccc(C(C(=O)NC2CCCC2)N(C(=O)c2snc(C(N)=O)c2N)c2ccccc2OC)cc1OC (configuration not stated)
→ 6.6, 1.6%, 5, 3.4, 7, -4
[57] Cc1ccc(C(=O)NCc2ccc(N3CCN(C(=O)OC(C)(C)C)CC3)cc2)cc1
→ -0.6, 11%, 0, 0.3, 7, -25
[58] Cn1c(CO)cnc1SCc1c(Cl)cccc1Cl
→ -3.1, 19%[38.3 µM], 1, -0.9, 3, -12
[59] COc1cc(NC(=O)c2cccc3c2C(=O)N(C2CCCCC2)C3)cc(OC)c1
→ /, 1.6%, /, -0.6, -4, /
[60] COC(C(=O)NNS(=O)(=O)c1ccccc1[N+](=O)[O-])c1ccccc1 (configuration not stated)
→ 1.3, -1.2%, 1, -0.4, 19, -8

Grouped by structure, those above containing bromine (3)
Order of values – D2 ag, PINK1 modulator, Six1-Eya2 inh, TRPML1 agonist, TRPML1 blocker, D2 potentiator
[14] COC(=O)[C@@]1(C(C)C)N=C(c2cc(OC)c(OC)c(OC)c2)[C@]2(O1)C(=O)N(C)c1ccc(Br)cc12
→ /, -0.2%, 2, 1.1, /, /
[26] O=C(COC(=O)COc1ccc(Br)cc1)NCC1CCCO1 (configuration not stated)
→ -2.0, 1.6%, -4, -0.2, 5, 2
[45] O=C(COC(=O)c1ccccc1Br)NCc1ccccc1
→ -1.3, -3.0%, 8, 1.0, 4, -19

The list continues.
Order of values – D2 ag, PINK1 modulator, Six1-Eya2 inh, TRPML1 agonist, TRPML1 blocker, D2 potentiator
[61] Cc1onc(-c2ccc(Cl)cc2)c1-c1ccnc(SCC(=O)Nc2ccc(C(C)C)cc2)n1
→ -2.6, -1.2%, -4, -0.6, -6, 0
[62] CCc1nc2ccc(C(=O)NCc3ccc(C)o3)cc2nc1CC
→ 1.8, 0.0%, -7, 3.2, 19, -8
[63] N#CCC(=O)Nc1ccc(C(=O)OCC(=O)NC2CCCCCC2)cc1
→ 1.4, 1.3%, -8, -0.7, 2, -1
[64] N#CC1=C(N)OC2=C(C(=O)CC(c3ccco3)C2)C1c1ccc(OCc2c(F)cccc2Cl)cc1 (configuration not stated)
→ -2.6, 0.0%, -23, 1.3, 31, -6
[65] CCCn1c(N)c(N(CCOC)C(=O)c2ccccc2)c(=O)[nH]c1=O
→ -0.6, 0.0%, -1, 8.6, 24, -1
[66] COc1ccc(NC(=O)C(=O)NCCC2CCCCN2S(=O)(=O)c2cccs2)cc1 (configuration not stated)
→ -7.9, -0.8%, -22, 1.8, 11, -13

Assay outcomes: PubChem BioAssay, National Center for Advancing Translational Sciences (NCATS)
